# Screens (PubChem)
# ClpP mod – qHTS Assay for Activators of ClpP; purified B. subtilis ClpP, FRET peptide cleavage, 20 min; Potency, µM (doses to about 57.5 µM), inactives show top-dose activity change, negative = active; ATP-dependent Clp protease proteolytic subunit (Bacillus subtilis (strain 168)), P80244; 340,000 tested, 1.9% active; AID 651965, 2013; active = well fitted falling curve with a large enough effect; inconclusive = small, poorly fitted or top-dose-only effect; inactive = no such curve, though single readings can be large or run the other way; note: potency is the fitted concentration of half-maximal effect; the source files actives as falling curves though it sought activators and does not explain the sign; nearly all actives have a fitted effect of over 65% in size; many hits overshoot -100%
# Target sequence (P80244 whole entry, looked up): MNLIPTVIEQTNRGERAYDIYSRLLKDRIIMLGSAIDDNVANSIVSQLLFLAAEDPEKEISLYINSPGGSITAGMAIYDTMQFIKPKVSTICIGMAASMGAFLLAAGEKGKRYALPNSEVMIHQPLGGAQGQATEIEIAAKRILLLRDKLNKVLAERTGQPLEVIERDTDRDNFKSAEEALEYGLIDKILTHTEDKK
#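 ClpP 10 microg/mL final, pH 8 Tris/KCl buffer with BSA, glycerol, Tween-20; compound pinned in; FRET-FV substrate; RT 20 min; Ex320/Em430; ΔFRET vs ADEP 5.8 microM, DMSO, no enzyme.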
# Sfp PPTase inh – inhibitors of Bacillus subtilis Sfp phosphopantetheinyl transferase | Q9F4F7 | Biochemical Sfp PPTase activity, qHTS | Potency, µM, for the others: max response, negative = inhibition, most hits filed as inhibitors | 310,000 tested, 3.5% active | AID 1490; active = well fitted inhibition curve with a large enough effect; inconclusive = small, poorly fitted or top-dose-only effect, or another doubt; inactive = no such curve, though single readings can be large or run the other way;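 note: the enzyme is Sfp with the accession as filed and its product quenches rhodamine fluorescence; potency is the fitted concentration of half-maximal effect; 0% = enzyme reaction without inhibitor and -100% = no enzyme wells; top concentration of the series not given in the record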
#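 After 15 min at room temperature with compound, 15 nM Sfp received 5 uM rhodamine-CoA plus 12.5 uM BHQ-2-ybbR (50 mM Hepes pH 7.6, 10 mM MgCl2). Rate came from the fluorescence difference over 30 min, ex 525/em 598 nm.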
# TRPV1 PAM – human TRPV1 potentiation | Q8NER1 | TRPV1-expressing cells, Fluo-8 calcium influx, capsaicin EC20 potentiation; host cell line not named in the record; control for the full effect not named in the record | potentiation, % at 8.33 µM | 320,000 tested, 0.02% active | AID 540277; active means potentiation above 80%; inconclusive means 30% to 80%; inactive means below 30%; note: 0% is about no effect
# Target sequence (Q8NER1 whole entry, looked up): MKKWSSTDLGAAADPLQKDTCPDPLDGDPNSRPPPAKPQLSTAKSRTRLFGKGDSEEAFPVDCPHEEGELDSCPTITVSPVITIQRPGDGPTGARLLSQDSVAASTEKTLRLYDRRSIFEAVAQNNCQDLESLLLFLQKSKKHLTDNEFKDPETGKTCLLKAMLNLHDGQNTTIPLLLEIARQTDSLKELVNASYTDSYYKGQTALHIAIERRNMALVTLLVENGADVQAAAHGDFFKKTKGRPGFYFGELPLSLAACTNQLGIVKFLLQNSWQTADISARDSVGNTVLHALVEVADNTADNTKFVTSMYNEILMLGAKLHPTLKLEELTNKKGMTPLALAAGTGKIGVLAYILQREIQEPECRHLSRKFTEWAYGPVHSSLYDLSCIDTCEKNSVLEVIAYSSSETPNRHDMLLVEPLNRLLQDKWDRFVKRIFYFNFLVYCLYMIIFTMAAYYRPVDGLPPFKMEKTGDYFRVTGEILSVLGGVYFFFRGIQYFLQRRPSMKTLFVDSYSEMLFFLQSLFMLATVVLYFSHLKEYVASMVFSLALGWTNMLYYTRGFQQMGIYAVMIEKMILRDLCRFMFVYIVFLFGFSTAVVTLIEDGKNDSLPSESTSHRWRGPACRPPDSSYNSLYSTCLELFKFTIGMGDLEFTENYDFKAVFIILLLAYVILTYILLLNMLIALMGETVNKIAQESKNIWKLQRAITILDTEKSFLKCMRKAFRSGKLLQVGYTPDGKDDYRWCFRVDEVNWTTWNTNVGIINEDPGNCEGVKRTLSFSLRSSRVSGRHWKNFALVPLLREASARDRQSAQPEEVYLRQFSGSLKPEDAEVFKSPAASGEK
#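 TRPV1-expressing cells were cultured overnight at 35.5C and loaded with Fluo-8 calcium dye for 40 to 90 min at room temperature. After a 10 s baseline, compound was added and calcium influx was read kinetically for 3 min (ex 480/em 520 nm).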
# Menin-MLL FL inh – menin-MLL binding inhibition, fluorescein peptide. Fluorescence polarization, fluorescein-MLL peptide displacement from menin. FP activity change, % at 61.4 µM. 290,000 tested, under 10 active. AID 1766; inconclusive = falling polarisation curve, or a change in total fluorescence; inactive = total fluorescence flat and polarisation flat or rising; no compound was filed as active; the % refers to the polarisation; negative = inhibition;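 note: % of control where 0% means no effect; inhibitors lower the polarisation; unlabelled MLL peptide was the positive control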
# gsp antagonist – gsp mutant antagonism; AID 624288; Potency, µM (top dose mostly 76.9 µM), without a hit: at the top dose activity change, negative = inhibition, most hits filed as inhibitors; gsp-mutant cells, cAMP HTRF, 30 min; control for the full effect not named in the record; 340,000 tested, 0.4% active; active = falling curve of any shape with a large fitted effect; inconclusive = falling curve, mostly with a smaller effect; inactive = flat or rising curve; cell line not stated here;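 note: intracellular cAMP measured with PDE inhibitor Ro 20-1724 present during compound exposure; potency is the fitted concentration of half-maximal effect; % is set by controls: 0 for no effect and ±100 for the full control effect; nearly all actives have a fitted effect of over 65% in size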
#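 HTRF cAMP read-out (cAMP-d2 plus anti-cAMP antibody-K in lysis buffer, 30 min RT). Before lysis, cells are exposed to compounds with […] for 30 min at 37C in DPBS containing Ca/Mg, BSA and Tween 20.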
# gsp ag – agonists of gsp mutant (McCune-Albright syndrome); gsp mutant cells, cAMP HTRF, 30 min; control for the full effect not named in the record; Potency, µM (doses to about 76.9 µM), for inactives: at the highest dose activation (cAMP increase), hits mostly activators; 340,000 tested, 0.13% active; active = well fitted activation curve with a large enough effect; inconclusive = small, poorly fitted or top-dose-only effect, or another doubt; inactive = no such curve, though single readings can be large or run the other way; cell line not stated here;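 note: phosphodiesterase inhibitor Ro 20-1724 added with compounds to block cAMP breakdown; potency is the fitted concentration of half-maximal effect; nearly all actives have a fitted effect of over 60% in size; about a fifth of the inactives were tested at one dose only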
#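 Cells in DMEM/10% FBS with G418 were pretreated with compounds in DMSO plus […] (300 uM stock) for 30 min at 37C. cAMP was measured by HTRF (cAMP-d2 plus anti-cAMP antibody-K) after 30 min at room temperature.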
# CtBP-E1A blk – blocks the CtBP interaction with E1A; AlphaScreen GST-E1A/His-CtBP binding, 1536-well; hits give low values; control for the full effect not named in the record; activity change, % (concentration not given with the values); 340,000 tested, 0.49% active; AID 651724; in the data active means activity change below about -65%; inconclusive means about -30% to -65%; inactive means above about -30%; note: % is set by controls: 0 for no effect and ±100 for the full control effect
#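 In 5 uL wells, 23 nL compound meets equimolar GST-E1A and His-CtBP (5X stock 125 nM each) for 2 h, 37 °C. Beads (5X, 50 ug/mL) then 1 h, 37 °C, dark.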
# The depositor's hits bear a star; ? = inconclusive; . = not tested or not shown; & = joins results of further samples; [ ] = another dose, or the depositor's remark.
SMILES,ClpP mod,Sfp PPTase inh,TRPV1 PAM,Menin-MLL FL inh,gsp antagonist,gsp ag,CtBP-E1A blk
Cc1ccc(NC(=O)CN(C)Cc2c(O)ccc3ccccc23)cc1,.,-17%,-1,0.1,-7%,-3%[15.4 µM],0
CN(C)c1ccc(C(CNS(=O)(=O)c2ccc3ccccc3c2)c2c[nH]c3ccccc23)cc1 (stereo not given),-4.2%,9%,-8,10.0,-5%,-8%,?
CCOC(=O)Cc1cc(=O)[nH]c(/N=C(\N)Nc2ccc(OC)cc2)n1,.,-2%,-1,4.1,2%,-9%[15.4 µM],-20
COc1ccc([C@H]2CC(=O)C=C(c3ccc(NC(C)=O)cc3)C2)cc1OC,-7.7%,.,8,.,-6%,.,4
CCCCCCc1cc2cc(/C(N)=N/NC(=O)c3ccncc3)c(=O)oc2cc1O,-16%,.,-6,.,0%,.,-17
CCn1cc(-c2cc(C(=O)O)c3ccccc3n2)c(C)n1,25%,28%,-2,0.7,-5%,-20%,-7
Cc1cc(C)cc(NC(=O)C2C3C=CC4(O3)C2C(=O)N(CCCN2CCCC2)C4C(=O)NC2CCCC(C)C2C)c1 (stereo not given),.,-4%,?,2.1,-12%,-1%[15.4 µM],1
CCN(CC)CCCN1C(=O)c2oc3ccccc3c(=O)c2C1c1cc(OC)ccc1OC (stereo not given),-18%,-2%,9,1.3,-11%,9%,7
Cc1ccc(C(=O)c2cc([N+](=O)[O-])ccc2N2CCCCC2)c(C)c1,-9.1%,3%,-7,9.0,14%,?,-7
CCCC(=O)NC(=S)Nc1cccc(Cl)c1N1CCCCC1,1.3%,15%,-11,-6.2,14%,16%,-1
O=C(O)CSCCCC(=O)Nc1ccc(Br)cc1,1.1%,16%,4,-5.0,4%,3%,8
NC(=O)C1=C[C@@H](c2ccc(C(F)(F)F)cc2)C[C@@H](OCc2ccc(CO)cc2)O1,-1.4%,-1%,-16,2.9,0%,-37%[inhibitor],.
COC(=O)C[C@H]1c2cc(F)ccc2S(=O)(=O)N1c1ccc(N(C)C)cc1,-0.8%&-4.1%,.,.,.,4%,-41%[inhibitor],.
S=c1[nH]nc(CSc2nc3ccccc3s2)n1C1CCCCC1,-0.4%,-16%,6,-1.9,-28%,-1%,-12
Cc1ccc(SCCC(=O)NCc2ccco2)cc1,-16%,0%,-17,-1.0,2%,-1%,-1
COc1ccc(CNCCCn2cnc(C(=O)Nc3ccc(C)c(C)c3)n2)cc1,-0.7%,.,.,.,12%,.,-4
O=C1CC(c2ccc(Cl)c([N+](=O)[O-])c2)c2ccc3ccccc3c2N1 (stereo not given),12%,1%,2,.,7%,-34%[inhibitor],-11
CCN(Cc1ccccc1)C(=O)Cn1cc2c(n1)CCCC2,0.1%,21%,2,-1.2,9%,28%,-2
O=C(N/N=C/c1ccc([N+](=O)[O-])o1)C1CC1,1.8%,10%,2,-7.1,-2%,26%,.
COc1ccc(-c2nc(CS(=O)CC(=O)NCc3cccnc3)c(C)o2)cc1 (stereo not given),-29%,-1%,15,0.8,4%,2%,-7
CN(Cc1nccn1C)C(=O)CC1C(=O)NCCN1CC(c1ccccc1)c1ccccc1 (stereo not given),?,-4%,6,-1.2,13%,?,4
CCCOc1ccc(CCCN=C(N)N)cc1Cl,0.9%,-11%,-23,-0.7,-3%,11%[15.4 µM],5
Cc1cc(NS(=O)(=O)c2cccc([N+](=O)[O-])c2)no1,1.4%,21%,3,.,-2%,?,4
Cc1ccc(N(CC(=O)O)S(C)(=O)=O)cc1,.,22%,2,-0.5,1%,-1%[15.4 µM],-15
O=C(O)CCCc1nc(-c2ccc(Cl)cc2)no1,-0.2%,14%,8,-7.4,-7%,-14%,-1

# A few values from the results shown.
# Result for `COc1ccc(CNCCCn2cnc(C(=O)Nc3ccc(C)c(C)c3)n2)cc1` in CtBP-E1A blk: -4
# Result for `NC(=O)C1=C[C@@H](c2ccc(C(F)(F)F)cc2)C[C@@H](OCc2ccc(CO)cc2)O1` in Menin-MLL FL inh: 2.9

# Further entries:
SMILES,ClpP mod,Sfp PPTase inh,TRPV1 PAM,Menin-MLL FL inh,gsp antagonist,gsp ag,CtBP-E1A blk
COc1ccc(C(=O)CC(c2ccccc2)S(=O)(=O)c2ccc(C)cc2)cc1 (stereo not given),.,4%,-1,4.5,.,.,.
COc1ccc(C(C(=O)NC2CCCC2)N(Cc2ccc(C)cc2)C(=O)c2ccn[nH]2)cc1OC (stereo not given),0.5%,8%,12,-1.4,-16%,?,1
COC(=O)N/N=C/c1ccc(Oc2ccccc2)cc1,.,2%,-15,-0.2,.,6%[15.4 µM],-13
CCN(CC)C(=O)Oc1ccc2c(c1)O/C(=C\c1ccco1)C2=O,.,?,-10,31[activator],-12%,-11%[15.4 µM],-1
CN(C)S(=O)(=O)c1cccc(C(=O)Nc2ccc(C(=O)Nc3cccc(S(N)(=O)=O)c3)cc2)c1,.,.,.,.,0%,13%,-1
CC(C)(C)CC(=O)Nc1ccc(S(=O)(=O)NC2=NCCCCC2)cc1,-1.1%,.,.,.,9%,2%[15.4 µM],11
CN1C2C=C3C(C#N)=C(N)C(C#N)(C#N)C(c4ccc(Br)cc4)C3C1CC2 (stereo not given),-9.7%,4%,-3,1.1,-1%,9%,-12
O=C(/C=C/c1ccccc1)Nc1cc(NC(=O)/C=C/c2ccccc2)cc(C(=O)O)c1,.,25%,?,2.4,0%,-51%[inhibitor],?
COc1ccccc1N=Nc1c(O)[nH]c2ccc(Br)cc12,.,7%,7,?,10%,20%,3
COc1cc2c(cc1NC(=O)C(Cl)Cl)-c1ccc(NC(=O)C(Cl)Cl)cc1C2,-14%,.,.,.,?,-2%,-8
O=C(NCCN1CCOCC1)c1ccc2c(c1)N(Cc1ccccc1)C(=O)c1ccccc1S2,-3.4%,-5%,-9,0.0,5%,-45%[inhibitor],2
CCCC(=O)Nc1ccc(C(=O)COC(=O)c2cc(C)oc2C)cc1,0.8%,.,?,.,-5%,-18%,.
COc1cc(C(=O)N/N=C/c2ccc3c(c2)c2ccccc2n3C)ccc1O,28µM*,12%,-3,1.0,-12%,9%[15.4 µM],-20
Cc1oc(C(N)=O)nc1-c1ccccc1,.,14%,3,0.8,11%,19%,-11
CCOc1ccccc1CNC(=O)c1nn(C)c2c1CS(=O)(=O)c1ccccc1-2,-2.6%&-3.2%,9%,2,.,-12%,10%,-5
O=C(N[C@@H](Cc1ccc(O)cc1)C(=O)O)c1ccncc1,-0.6%,.,.,.,10%,0%,7
CCN(CC)S(=O)(=O)c1ccc2nc(CCl)[nH]c2c1,14µM*,11%,0,-1.1,6%,-1%[15.4 µM],-15
CCN(C(=O)CN1CCc2ccccc21)c1c(N)n(Cc2ccccc2)c(=O)[nH]c1=O,-3.2%,-3%,11,?,-4%,-4%,-4
CC1(C)Cc2nc3sc(C(=O)O)c(N)c3cc2CS1,.,-23%,-4,8.5,.,.,.
COc1ccc(CC(=O)N(C)CC(=O)Nc2cccc(F)c2)cc1S(=O)(=O)N1CCOCC1,-1.5%,15%,6,.,7%,-7%[15.4 µM],-5
CCOC(=O)C=C1CCN(c2ncc(C(F)(F)F)cc2Cl)CC1,0.5%,12%,10,3.1,-4%,-16%,14
Cc1ccc(S(=O)(=O)N(C)c2ccc(C(=O)NCC3CCCO3)cc2)cc1 (stereo not given),-3.6%,13%,3,1.7,-4%,-2%,-6
CC(=O)c1[nH]c(C)c(C(=O)N2CCCC(Nc3ccc(C(C)C)cc3)C2)c1C (stereo not given),-0.5%,14%,-6,-0.4,1%,0%,-3
CC(C)CN1CN(Cc2ccccc2)CNC1=S,-0.4%,15%,-2,3.2,16%,-3%[15.4 µM],-6
COc1cc2nc(N(C)C)nc(N)c2cc1OC,-2.0%,8%,2,1.0,-2%,-35%[inhibitor],-6
# The listing continues:
SMILES,ClpP mod,Sfp PPTase inh,TRPV1 PAM,Menin-MLL FL inh,gsp antagonist,gsp ag,CtBP-E1A blk
CC(C)NC(=O)c1c(O)c2ccccc2[nH]c1=O,-14%,3%,-3,5.3,9%,10%,8
NS(=O)(=O)c1ccc(CCNC(=O)COC(=O)CC(c2ccccc2)c2ccccc2)cc1,.,22%,5,5.9,0%,12%,2
C=CCCC(=O)N1CCC(n2nccc2NC(=O)CCCc2ccccc2)CC1,0.9%,-7%,-12,.,10%,-42%[inhibitor],6
Cc1nc2ccc(NC(=O)Cn3cnc4c3c(=O)n(C)c(=O)n4C)cc2s1,.,9%,-2,0.7,.,.,.
C(=N\N1CCN(Cc2ccccc2)CC1)/c1ccccc1,-0.2%,9%,-8,4.5,-8%,-2%,-24
COc1ccc(CNCc2ccc(F)cc2)c(OC)c1,.,7%,-3,1.1,9%,-11%,1
Cn1cc(Br)c(C(=O)N/N=C/c2cc3c(cc2Cl)OCO3)n1,-21%,8%,-6,-4.0,-18%,29%,-6
COC(=O)Cc1ccc(NC(=S)NCc2cccc(OC)c2)cc1,.,5%,-7,2.0,-2%,10%[15.4 µM],0
COc1ccc(NC(=O)Cn2nnc(C(=O)NCCc3ccccc3)c2N)c(OC)c1,1.7%,?,-8,-0.9,-9%,-7%,3
O=C(CSc1nc2ccccc2c(=O)[nH]1)c1ccccc1,-1.1%,8%,-5,-1.1,-4%,23%,0
C/C(=C\C(=O)c1ccc(C)cc1)Nc1ccc(N2CCOCC2)cc1,.,5%,8,0.2,.,.,.
Cc1noc(C)c1C(=O)N(C)Cc1ccccc1,.,13%,14,0.6,3%,-3%[15.4 µM],-14
Cn1nnc2c(N3CCCCC3)nccc21,?,0%,10,0.0,9%,-3%,6
Cc1cc(NCC2CCCO2)n2c(nc3ccccc32)c1C#N (stereo not given),?,1%,9,?,-28%,17%,-1
O=C(NC12CC3CC(CC(C3)C1)C2)N1CC2Cc3cccc(=O)n3C(C2)C1 (stereo not given),-3.5%,9%,5,-0.3,-8%,-16%,-1
Cc1ccc(-n2nnnc2SCC(=O)N2CCNC2=O)cc1C,-4.2%,.,-7,.,2%,7%,.
CC1CCCC(C)N1C(=O)COC(=O)c1cc(-c2cccs2)nn1-c1ccccc1 (stereo not given),-0.9%,.,-3,.,-20%,4%,-9
CCOC(=O)c1c(C)[nH]c(C)c1S(=O)(=O)N1CCCCC1,0.7%,3%,-5,-1.0,5%,-15%,.
